# Marburg entry inh: inhibitors of Marburg virus binding or cell entry; 300,000 compounds, 1.8% hits; AID 540276; Marburg virus pseudotyped entry inhibition, cell reporter; control for the full effect not named in the record; about a third of the inactives were read at about 46 µM; Potency, µM (doses to about 37.8 µM), for the others: top-dose activity change, negative = inhibition, actives largely listed as inhibitors; active = well fitted inhibition curve with a large enough effect; inconclusive = small, poorly fitted or top-dose-only effect, or effect the other way; inactive = flat fitted curve, though single readings scatter; tested in HEK293 cells; about a fifth of its hits are not listed in these tables; note: % is set by controls: 0 for no effect and ±100 for the full control effect; luciferase read-out
# SARS PLP yeast: blocks SARS-CoV papain-like protease in a yeast assay. S. cerevisiae expressing SARS-CoV PLpro, growth rescue; control for the full effect not named in the record. Potency, µM (top dose mostly 32.9 µM), for inactives: top-dose activity, positive = growth rescue. 330,000 compounds, 0.19% hits; note: 0% is about no effect; nearly all actives have a fitted effect of over 55% in size; growth read by luminescence after 48 h
# Cruzain inh noDet: cruzain (T. cruzi) inhibition without detergent; purified cruzain, Z-FR-AMC fluorescence, no detergent; Potency, µM, for inactives: max response, negative = inhibition, actives largely listed as inhibitors; 200,000 compounds, 2.3% hits; active = well fitted curve in the direction sought with a large enough effect; inconclusive = small, poorly fitted or top-dose-only effect, or another doubt; inactive = no such curve, though single readings can be large; an effect the other way counts as inactive or inconclusive;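 note: plate controls were enzyme without inhibitor for no effect and buffer without enzyme for full effect; nearly all actives have a fitted effect of over 40% in size; top concentration of the series not given in the record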
# Target sequence (P25779 123-467 limits assumed): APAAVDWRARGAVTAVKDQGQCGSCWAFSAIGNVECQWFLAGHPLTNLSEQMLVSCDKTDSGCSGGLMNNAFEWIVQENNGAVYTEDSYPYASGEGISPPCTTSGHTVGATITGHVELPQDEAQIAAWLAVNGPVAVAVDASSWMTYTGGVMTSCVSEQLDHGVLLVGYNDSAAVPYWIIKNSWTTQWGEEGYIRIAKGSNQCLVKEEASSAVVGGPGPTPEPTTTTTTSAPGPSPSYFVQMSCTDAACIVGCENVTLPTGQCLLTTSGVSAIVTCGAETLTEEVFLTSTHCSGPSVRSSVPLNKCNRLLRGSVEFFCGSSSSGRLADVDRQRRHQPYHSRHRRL
#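 Detergent-free condition (0.00005% Triton X-100) in acetate buffer pH 5.5 with DTT. 1.5 nM enzyme and compound were pre-mixed 15 min, then 2 uM Z-FR-AMC substrate added; reaction progress from fluorescence change between first and third reads (60 s).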
# Cruzain inh Det: blocks cruzain activity in presence of Triton detergent | P25779 | purified cruzain, Z-FR-AMC fluorescence, 0.01% Triton | Potency, µM, for the others: max response, negative = inhibition, hits mostly inhibitors | 200,000 compounds, 0.43% hits; active = well fitted curve in the direction sought with a large enough effect; inconclusive = small, poorly fitted or top-dose-only effect, or another doubt; inactive = no such curve, though single readings can be large; an effect the other way counts as inactive or inconclusive;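 note: plate controls were neutral wells for no effect and buffer without enzyme for full effect; nearly all actives have a fitted effect of over 40% in size; top concentration of the series not given in the record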
#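 Z-FR-AMC hydrolysis (2 uM substrate) by cruzain (1.5 nM) monitored kinetically at ex 360/em 450 nm after 15 min room-temperature compound exposure; 0.01% Triton X-100, pH 5.5, 5 mM DTT.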
# NS1 function inh: inhibitors of influenza NS1 protein function; S. cerevisiae slowed by influenza A NS1, growth recovery by OD600; Potency, µM (top dose mostly 46.1 µM), for the others: top-dose activity, positive = more growth; 270,000 compounds, 0.4% hits; note: actives are rising curves; nearly all actives have a fitted effect of over 50% in size
#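 Growth recovery, yeast-based: influenza A NS1 expressed in S. cerevisiae causes slow growth, and suppressors are detected by OD600. The parent strain without NS1 is used as positive control.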
# StopGo reporter: FMDV 2A StopGo reporter, luciferase signal; human cells with a luciferase reporter of 2A StopGo recoding; control for the full effect not named in the record; 410,000 compounds, 1.2% hits; Potency, µM (highest dose often 57.9 µM), inactives show at the highest dose signal change, negative = less light; active = well fitted falling curve with a large enough effect; inconclusive = small, poorly fitted or top-dose-only effect; inactive = no such curve, though single readings can be large or run the other way; tested in HEK293T cells; note: % is set by controls: 0 for no effect and ±100 for the full control effect; nearly all actives have a fitted effect of over 45% in size; luciferase light after 4 h
# RE007 growth inh: less growth of the S. pombe RE007 Vpr strain | S. pombe RE007 Vpr strain, BacTiter-Glo ATP luminescence, 24 h; control for the full effect not named in the record | Potency, µM (titrated, usually from 92.2 µM), for the others: top-dose activity change, negative = less growth | 360,000 compounds, 0.21% hits | AID 651644; active = well fitted falling curve with a large enough effect; inconclusive = small, poorly fitted or top-dose-only effect; inactive = no such curve, though single readings can be large or run the other way;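 note: % is set by controls: 0 for no effect and ±100 for the full control effect; nearly all actives have a fitted effect of over 50% in size; the assay follows cell death caused by Vpr and the record does not say whether a fall means rescue or toxicity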
#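 Fission yeast RE007 carrying one integrated HIV-1 vpr copy, seeded at OD 0.01 in PMG+AL medium with 23 nL pinned compound. Grown 24 h at 30 degrees; viability read by BacTiter-Glo luminescence after 5 min.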
# LASV entry inh: inhibitors of Lassa virus binding or cell entry | Lassa virus pseudotype entry inhibition, cell reporter; control for the full effect not named in the record | Potency, µM (top dose mostly 37.9 µM), for the others: at the highest dose activity change, negative = inhibition, hits mostly inhibitors | 300,000 compounds, 1.2% hits | AID 540256; active means well fitted inhibition curve with a large enough effect; inconclusive means small, poorly fitted or top-dose-only effect, or effect the other way; inactive means flat fitted curve, though single readings scatter; tested in HEK293 cells; note: % is set by controls: 0 for no effect and ±100 for the full control effect; nearly all actives have a fitted effect of over 50% in size; luciferase read-out
# * marks the source's active call; other numbers are inactive results; ? = inconclusive; . = not tested or not shown; & = joins results of further samples; [ ] = another dose, or the depositor's remark. Unless noted, calls come from the whole dose curve; as a rule, active means well fitted rising curve with a large enough effect; inconclusive means small, poorly fitted or top-dose-only effect; inactive means no such curve, though single readings can be large or run the other way. Potency is the fitted concentration of half-maximal effect. Rows are unselected; about 4.7% have a hit in one of these screens.
SMILES,Marburg entry inh,SARS PLP yeast,Cruzain inh noDet,Cruzain inh Det,NS1 function inh,StopGo reporter,RE007 growth inh,LASV entry inh
COc1cc(OC)cc(C(=O)NC(C(=O)Nc2ccc(N3CCOCC3)cc2)C(C)C)c1 (stereo unspecified),13%,1%,.,.,.,9%,4%,-16%
Cc1cc(F)ccc1N1CCC(N2CCN(CCC(C)C)C(CCO)C2)CC1 (stereo unspecified),.,-2%,.,.,-3%,0%,-15%,?
Cc1c(O)nc(SCC(=O)Nc2ccc3c4c(cccc24)CC3)n(-c2ccccc2)c1=O,-1%,?,?,-23%,?,-15%,13%,-2%
CCOCN(C(=O)Cn1cnc2ccccc21)c1c(C)cccc1CC,-7%[46.1 µM],0%,.,.,-2%,-3%,?,10%
COC(=O)c1cnn2c3c(c(C)nc12)CCCC3,?,2%,4%,2.6%,4%,46%[activator],3%,9%
O=C(CSc1nnc(Cc2ccccc2)o1)NC1CCCCC1,0%,2%,2%,3.2%,-6%,.,2%,13%
CCN(c1ccccc1)S(=O)(=O)c1ccc(Cl)c(C(=O)NCC2CCCO2)c1 (stereo unspecified),0%[46.1 µM],-1%,.,.,.,-5%,7%,-21%
Cc1ccc(N2C(=O)Nc3ccccc3S2(=O)=O)cc1Cl,?,-1%,.,.,1%,-3%,10%,-27%
COc1cccc(OCC(Cn2c(C)nc3ccccc32)OC(C)=O)c1 (stereo unspecified),?,0%,.,.,7%,-23%,-11%,?
FC(F)(F)c1cnc2c(-c3ccccc3)n[nH]c2c1,?,-8%,.,.,-3%,55%[activator],-8%,-31%
O=C(CSc1nc(Nc2ccccc2)c2ccccc2n1)c1ccc(Cl)cc1,.,.,?,-3.0%,.,-23%,.,-9%[46.1 µM]
COc1ccc(-c2nn(CCC#N)cc2C(=O)NCc2ccccc2)cc1[N+](=O)[O-],.,-1%,.,.,2%,51%[activator],7%,.
COc1cc(OC)cc(-c2nc3nc(C)c(CCC(=O)Nc4ccc(C)cc4)c(C)n3n2)c1,-6%[46.1 µM],.,8%,-4.2%,.,8%,.,8%[46.1 µM]
CNc1nnc(-c2ccncc2)s1,20%,-3%,-2%,-6.6%,7%,26%,15%,27%
CCCNC(=O)c1c(N)n(-c2cc(OC)cc(OC)c2)c2nc3ccccc3nc12,-28%,1%,?,2.5%,-43%,?,9%,1%
O=C(CCc1nnc2n(Cc3ccc(F)cc3)c(=O)c3ccccc3n12)NCCCN1CCOCC1,.,5%,.,.,7%,-8%,-20%,.
Cc1ccc(C)c(NCCC#N)c1,-8%,13%,-7%,-0.6%,8%,-6%,5%,1%
OC1CCN(c2cc(-c3ccccc3)nc3cc(-c4ccc(F)cc4)nn23)CC1,-6%[46.1 µM],-2%,.,.,-2%,-24%,3%,-16%[46.1 µM]
O=C(CSc1ccc([N+](=O)[O-])cn1)Nc1ccc2c(c1)OCO2,0%[46.1 µM],5%,.,.,-9%,-5%,6%,7%[46.1 µM]
COCC(=O)N(Cc1cc2ccc(C)cc2[nH]c1=O)c1ccc(OC)cc1,-28%,-4%,3%,2.2%,5%,0%,4%,-18%[14.3 µM]
CCCc1cc(=O)[nH]c(SCC(=O)N(C)C2CCS(=O)(=O)C2)n1 (stereo unspecified),-7%,7%,6%,5.9%,2%,-2%,-1%,11%
COc1cc2c(cc1NC(=S)NC(=O)/C=C/c1ccc(OC)c(OC)c1)oc1ccccc12,13%[46.1 µM],0%,-25%,-2.9%,9%,5%,0%,?
CC(C)N(C(=O)COC(=O)c1ccc(Cl)c(S(N)(=O)=O)c1)C(C)C,-8%[46.1 µM],0%,.,.,.,-10%,13%,14%
O=S(=O)(c1ccc(Cl)c(Cl)c1)c1snnc1-c1ccccc1,5µM*,-46%,0%,0.2%,-122%,?,?,7.1µM*
O=C(CCN1C(=O)/C(=C/c2ccc(F)cc2)SC1=S)NCCc1ccc(O)cc1,.,3%,.,.,-7%,-11%,13%,.
COc1ccc(C(C(=O)NCc2ccccc2)N(Cc2ccco2)C(=O)c2snc(C(N)=O)c2N)cc1 (stereo unspecified),?,-2%,.,.,1%,11%,2%,.
CC(NC(=O)c1cccc(F)c1)C(c1cccs1)N1CCN(C)CC1 (stereo unspecified),-2%,4%,8%,2.3%,-5%,-17%,2%,12%
COc1ccc(C(=O)Nc2ccc(N3CCN(C)CC3)cc2)cc1,.,-3%,.,.,-24%,63%[activator],6%,.
COc1ccc(C(=O)Nc2ccc(-c3nc4ncccc4o3)cc2C)cc1Br,7%[46.1 µM],.,-8%,-1.6%,.,-18%,.,4%[46.1 µM]
O=C(c1ccc(F)cc1)c1cccc(C(=O)c2ccc(F)cc2)n1,-18%,.,.,.,.,-28%,7%,-1%
CNC(=O)C(NC(=O)CNC(=O)c1ccc(Cl)cc1)C(C)(C)C (stereo unspecified),12%[46.1 µM],0%,.,.,6%,9%,10%,4%
CCCCN(CCCC)CCNC(=O)CSCc1ccc(C)cc1,7.1µM*,-1%,.,.,.,?,-1%,-11%[46.1 µM]
O=C(N/N=C1\CCCc2c1[nH]c1ccc([N+](=O)[O-])cc21)c1ccncc1,.,-14%,-2%,5.7%,14%,.,.,.
Cc1ccc2nc(-c3ccc(NC(=O)COC(=O)c4ccc([N+](=O)[O-])o4)cc3)sc2c1,4µM*,1%,16µM*,-5.8%,-8%,-63%,7%,7.1µM*
Cc1ccc(Nc2nc(N)c([N+](=O)[O-])c(N3CCC(C)CC3)n2)cc1C,14µM*,-58%,24%,-11%,22%,-17%,6%,-1%
CC(=O)N1CCCc2cc(S(=O)(=O)N3CCCC(C(=O)Nc4cc(C)ccc4C)C3)ccc21 (stereo unspecified),-2%[46.1 µM],-1%,.,.,-21%,-18%,-8%,13%[46.1 µM]
CC1=CC(C)C(C[N+]2(C)CCCCC2)C(C)C1 (stereo unspecified),17%,1%,.,.,0%,-13%,5%,12%
COC(=O)Cc1c(C)nc2nc(NCc3cccc([N+](=O)[O-])c3)[nH]n2c1=O,8%,12%,-1%,3.0%,7%,-6%,-10%,2%
CCOC(=O)c1cnc2c(ccc3ccccc32)c1Nc1cccc(OC)c1,.,.,-10%,0.2%,.,-11%,.,17%[46.1 µM]
COC(=O)N/N=C(\C)c1ccccc1OC(F)F,-1%,21%,2%,-1.6%,6%,-4%,12%,-5%
Cc1cc2ncn(/N=C/c3ccc([N+](=O)[O-])s3)c2cc1C,?,-87%,-1%,0.6%,-29%,-16%,13%,-6%
COc1cc(C(=O)NCC(c2ccccc2)N(C)C)ccc1OCC(=O)N1CCOCC1 (stereo unspecified),10%[46.1 µM],-1%,.,.,.,0%,6%,.
CCN1CCN(C(=O)NS(=O)(=O)c2ccc(C)cc2)CC1,.,1%,.,.,-1%,-14%,-6%,.
OCCSc1nc(-c2ccccc2)nc2c1CCC2,6%,-16%,-3%,-4.1%,-25%,-15%,-25%,-10%
O=C(NC1CC1)C1CCN(S(=O)(=O)c2cc(Cl)ccc2Cl)CC1,5%[46.1 µM],0%,.,.,1%,-1%,-14%,7%[46.1 µM]
O=C(NCCS(=O)(=O)N1CCN(c2ccc(F)cc2)CC1)c1ccccc1Br,.,.,-13%,-0.8%,.,-16%,.,3%[46.1 µM]
CCCN(CCC)CCNC(=O)c1cn(C)c(=O)c2c1c1ccccc1n2C,?,0%,.,.,-5%,?,-1%,12%[46.1 µM]
CC(=O)c1cccc(NC(=O)CSc2nc3c(c(=O)[nH]2)CCC3)c1,-26%[46.1 µM],.,-3%,-7.0%,.,-3%,.,-8%[46.1 µM]
CCOC(=O)c1[nH]c2cc3c(cc2c1NC(=O)CN1CCC2(CC1)OCCO2)OCO3,-9%,-8%,10%,-4.8%,-17%,-11%,-11%,-8%
Cn1c(C(=O)NCCCN2CCN(c3ccccc3F)CC2)cc2c(=O)[nH]c3ccccc3c21,?,0%,-1%,-2.5%,-5%,-16%,-2%,16%
Cc1ccc(S(=O)(=O)N2CCCCC2)cc1NC(=O)COC(=O)c1ccc(O)cc1,9%[46.1 µM],0%,.,.,.,-1%,-19%,3%[46.1 µM]
O=C(c1cc(C2CC2)nn1-c1ccccc1)N1CCN(c2ccc(O)cc2)CC1,-2%,0%,.,.,.,41%[activator],2%,-28%
CCN(CC)S(=O)(=O)c1cccc(-c2nnc(SCC(=O)NC)n2CCc2ccccc2)c1,5%&5%,-1%,?,0.2%,-4%,7%,-9%,7%
O=C(O)CNc1ccc(S(=O)(=O)C(F)(F)F)cc1[N+](=O)[O-],23%[46.1 µM],0%,.,.,-2%,-4%,-8%,-6%
O=C(CN1CCC(n2nnc3cc(C(F)(F)F)ccc32)CC1)Nc1ccc2c(c1)CCC2,-7%,0%,6%,-10%,6%,-7%,13%,?
O=C(NCCN1CCN(C(=O)c2ccc([N+](=O)[O-])cc2)CC1)C(=O)NCc1ccccc1,.,-1%,.,.,5%,-7%,-4%,.

# Compound profiles (already shown). Order of screens: Marburg entry inh	SARS PLP yeast	Cruzain inh noDet	Cruzain inh Det	NS1 function inh	StopGo reporter	RE007 growth inh	LASV entry inh
# Cn1c(C(=O)NCCCN2CCN(c3ccccc3F)CC2)cc2c(=O)[nH]c3ccccc3c21 reads ?	0%	-1%	-2.5%	-5%	-16%	-2%	16%
# CC(=O)N1CCCc2cc(S(=O)(=O)N3CCCC(C(=O)Nc4cc(C)ccc4C)C3)ccc21 (stereo unspecified) reads -2%[46.1 µM]	-1%	.	.	-21%	-18%	-8%	13%[46.1 µM]
# O=C(NCCN1CCN(C(=O)c2ccc([N+](=O)[O-])cc2)CC1)C(=O)NCc1ccccc1 reads .	-1%	.	.	5%	-7%	-4%	.
# Cc1ccc(S(=O)(=O)N2CCCCC2)cc1NC(=O)COC(=O)c1ccc(O)cc1 reads 9%[46.1 µM]	0%	.	.	.	-1%	-19%	3%[46.1 µM]
